MLL AF4-AF9 inh = inhibitors of AF4 peptide binding to AF9, primary screen, biochemical, AlphaScreen, biotin-AF4 peptide, FLAG-AF9, single point; inhibition, % at 10 µM; hit rate 0.47% among 350,000; AID 651704, 2012;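 active = every replicate reaching a set inhibition limit, whatever the replicate mean, cut at about 25% in these data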;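 also: 0% = plate neutral control median and 100% = total signal loss; the record names both 10 and 1 µM as test concentration; the first replicate is given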
Target sequence (P42568 whole entry, looked up): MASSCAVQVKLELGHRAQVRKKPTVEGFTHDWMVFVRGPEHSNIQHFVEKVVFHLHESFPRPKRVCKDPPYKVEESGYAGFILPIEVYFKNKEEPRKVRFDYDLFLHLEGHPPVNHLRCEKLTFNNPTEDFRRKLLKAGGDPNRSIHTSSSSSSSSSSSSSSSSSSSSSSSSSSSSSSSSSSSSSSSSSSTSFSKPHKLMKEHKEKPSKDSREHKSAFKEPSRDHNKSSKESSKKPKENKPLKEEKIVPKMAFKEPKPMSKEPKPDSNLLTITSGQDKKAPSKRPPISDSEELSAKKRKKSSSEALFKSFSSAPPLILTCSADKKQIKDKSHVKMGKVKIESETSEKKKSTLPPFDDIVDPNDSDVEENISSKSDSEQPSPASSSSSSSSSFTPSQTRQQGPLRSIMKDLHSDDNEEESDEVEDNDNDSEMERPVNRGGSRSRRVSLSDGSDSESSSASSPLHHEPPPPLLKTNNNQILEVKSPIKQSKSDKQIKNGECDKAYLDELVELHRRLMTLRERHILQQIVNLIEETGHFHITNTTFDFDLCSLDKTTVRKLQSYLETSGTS
Ecoli rRNA inh = reduced GFP signal of wild-type E. coli, primary screen, bacterial rRNA inhibitor project, GFP/RFP fluorescence, OD600, single point; AID 720706, 2013; E. coli WT GFP vs humanized-ribosome RFP mutants, 24 h; hits give low values; DMSO median 0, no signal -100; hit rate 1.6% among 350,000; GFP signal change (wild-type ribosome), % (concentration not given with the values);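 active = significant combined selectivity score with lowered wild-type GFP, culture density cut under 30%, mutant RFP and density less affected; inactive = any of these conditions unmet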; also: one replicate is shown; some compounds called inactive have numbers as strong as hits
Ecoli rRNA inh OD600 = also measured in Ecoli rRNA inh; calls as there; OD600 change, %; measured here: OD600 growth;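 optical density of the mix in the first replicate; 0 = DMSO median and -100 = no signal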
Ecoli rRNA inh RFP = second read-out of Ecoli rRNA inh, no call of its own (marks repeat the call); RFP signal change, %; measured here: RFP humanized mutant strains;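 first replicate; 0 = DMSO median and -100 = no signal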
* marks the source's active call; other numbers are inactive results; & = joins results of further samples. Not all compounds are listed; rates above refer to the full screens.

MLL AF4-AF9 inh | Ecoli rRNA inh | Compound | Ecoli rRNA inh OD600 | Ecoli rRNA inh RFP
-13 | -1 | C[C@@H]1CCCCO[C@@H](CN(C)C(=O)C2CCCCC2)[C@H](C)CN([C@@H](C)CO)C(=O)c2cc(NS(=O)(=O)c3cccs3)ccc2O1 | -7 | 3.2
-4.7 | -25 | C[C@H]1CN([C@@H](C)CO)C(=O)Cc2cc(NC(=O)C3CCCCC3)ccc2O[C@H]1CN(C)Cc1ccc(C(=O)Nc2ccccc2N)cc1 | -25 | -5.6
0.2 | -26* | COC(=O)C1=CN(c2ccc(OC)cc2OC)C(N)=C(C#N)C1c1ccc(OC)cc1 (configuration not stated) | -14* | 4.9*
-10 | -1 | C[C@H](CO)N1C[C@H](C)[C@@H](CN(C)S(=O)(=O)c2ccccc2)OCCCC[C@H](C)Oc2ccc(NC(=O)Nc3cccc4ccccc34)cc2C1=O | 4 | 0.8
0.3 | -2 | CO[C@@H]1CN(C)C(=O)c2cc(NC(C)=O)ccc2OC[C@@H](C)N(Cc2cc(F)ccc2F)C[C@@H]1C | -9 | 0.1
-2.2 | 1 | C[C@@H]1CN([C@@H](C)CO)C(=O)c2cccc(NS(=O)(=O)c3ccccc3)c2O[C@H]1CN(C)Cc1ccc(C(=O)O)cc1 | 8 | -1.5
-2.6 | 2 | CN1C(=O)c2cc(NC(=O)c3cnccn3)ccc2OC[C@H]2O[C@@H](CC(=O)NCC3CC3)CC[C@@H]21 | 5 | -3.4
6.7 | 0 | OC[C@@H]1[C@H](c2ccc(-c3ccc(F)cc3)cc2)[C@@H]2CN(Cc3cccnc3)CCCCN12 | -2 | 1.7
-0.3 | -1 | CCS(=O)(=O)Nc1ccc2c(c1)C(=O)N(C)C[C@@H](OC)[C@@H](C)CN(C(=O)C1CC1)[C@@H](C)CO2 | -2 | 0.4
3.5 | -17 | C[C@@H]1CN([C@H](C)CO)C(=O)c2cc(NC(=O)Nc3ccc(F)cc3)ccc2O[C@@H](C)CCCCO[C@@H]1CN(C)Cc1ccc2c(c1)OCO2 | -42 | 30
0.3 | -4 | C[C@@H]1CN([C@H](C)CO)C(=O)c2cccc(NS(=O)(=O)c3ccc(Cl)cc3)c2O[C@H]1CN(C)C(=O)Nc1ccc2c(c1)OCO2 | 0 | 0.5
-2.7&-1.8&-2.1 | 5&4 | COc1cccc(C#Cc2ccc3c(c2)O[C@H](CN(C)S(=O)(=O)c2ccccc2F)[C@H](C)CN([C@H](C)CO)S3(=O)=O)c1 | 11&8 | -1.3&3.2
6.4 | -4 | Cc1cc(Br)cn2c(Cc3ccsc3)c(-c3ccco3)nc12 | 6 | 12
0.0 | -2 | C[C@@H]1CN([C@@H](C)CO)C(=O)c2cc(NC(=O)Cc3ccccc3)ccc2O[C@@H](C)CCCCO[C@@H]1CN(C)C(=O)c1ccccc1 | -1 | -1.0
-0.5 | 2 | CCCNC(=O)C[C@@H]1C[C@H]2c3cc(NC(=O)Nc4ccc(F)cc4)ccc3O[C@H]2[C@H](CO)O1 | -2 | -0.7
26* | 4 | OC[C@@H]1[C@@H](c2ccccc2)C2(CN(Cc3cccnc3)C2)N1Cc1ccncc1 | 15 | -0.8
-1.7 | -3 | CN(C)C(=O)c1ccc(-c2ccccc2[C@H]2[C@@H](CO)N(C(=O)C3CCCCC3)[C@H]2C#N)cc1 | 1 | -4.9
1.2 | -1 | O=C(C[C@H]1CC[C@@H]2[C@H](COC[C@@H](O)CN2Cc2cc(F)cc(F)c2)O1)Nc1nccs1 | -3 | 0.8
4.0 | -47 | Cc1ccccc1-c1cc2nc(OCC3CCCO3)n(C)c(=O)c2s1 (configuration not stated) | -75 | -14
2.4 | 1 | COc1ccc(NC(=O)Nc2cccc3c2O[C@@H](CN(C)C(=O)Nc2ccc(OC)cc2)[C@@H](C)CN([C@@H](C)CO)C3=O)cc1 | -5 | -0.3
-0.6 | 2 | Cc1noc(C)c1NC(=O)N(C)C[C@H]1Oc2c(NS(=O)(=O)c3ccc(F)cc3)cccc2C(=O)N([C@H](C)CO)C[C@@H]1C | 4 | -1.2
3.3 | 2 | C[C@@H]1CCCCO[C@@H](CN(C)Cc2ccncc2)[C@H](C)CN([C@@H](C)CO)C(=O)c2cc(NC(=O)CCCN(C)C)ccc2O1 | 5 | -3.0
-1.5 | 9 | Cc1ccc(Cl)cc1-c1cc(C(=O)N2CCN(c3ccncc3)CC2)[nH]n1 | 35 | 3.0
1.6 | -2 | CN1[C@@H]2Cn3c(ccc(-c4cccc(F)c4)c3=O)[C@H]1[C@@H](C(=O)Nc1nccs1)[C@@H]2CO | -5 | -2.0
4.6 | 2 | CCCC(C)(C)C(=O)N1CCC1(C)C(=O)NS(=O)(=O)c1ccc(Cl)cc1 (configuration not stated) | 2 | -1.0
-2.2 | 1 | COc1ccc(S(=O)(=O)N(C)C[C@@H]2Oc3ccc(NS(=O)(=O)c4c(C)noc4C)cc3CC(=O)N([C@H](C)CO)C[C@H]2C)cc1 | -1 | -1.2
-1.6 | 2 | Cc1ccc(S(=O)(=O)N(C)C[C@@H]2OCCCC[C@@H](C)Oc3ccc(NC(=O)Cc4ccccc4)cc3C(=O)N([C@@H](C)CO)C[C@H]2C)cc1 | 5 | 0.8
0.9 | 1 | C[C@@H](NC(=O)C[C@H]1CC[C@@H]2[C@H](COC[C@H](O)CN2Cc2ccc(C(F)(F)F)cc2)O1)c1ccccc1 | -11 | -7.7
-2.4 | 3 | Cc1noc(C)c1S(=O)(=O)Nc1ccc2c(c1)C(=O)N([C@H](C)CO)C[C@H](C)[C@@H](CN(C)Cc1ccc(Cl)c(Cl)c1)OCCCC[C@H](C)O2 | -17 | 7.9
2.7 | -17* | CCOc1ccc(OCCC(=O)OCC(=O)c2c(N)n(CC(C)C)c(=O)n(C)c2=O)cc1 | -10* | -0.8*
0.3 | -8 | COc1ccccc1NC(=O)N[C@@H]1C=C[C@H](CC(=O)N2CCC(Cc3ccccc3)CC2)O[C@@H]1CO | -32 | 28
5.5 | 1 | CCC(=O)N1[C@H](CO)[C@@H](c2ccc(/C=C/c3ccccc3)cc2)C12CN(S(C)(=O)=O)C2 | -12 | 1.8
0.1 | -2 | CC(C)C#Cc1cnc2c(c1)C(=O)N([C@H](C)CO)C[C@@H](C)[C@H](CN(C)C(=O)CC1CC1)O2 | -4 | -7.4
-0.3 | -2 | C[C@@H]1CN([C@H](C)CO)C(=O)c2cc(NC(=O)Cc3cn(C)c4ccccc34)ccc2O[C@H]1CN(C)C(=O)Nc1ccccc1 | 2 | 1.7
5.7 | 2 | COc1ccc2c3c([nH]c2c1)[C@@H](CO)N(Cc1ccccc1)CC31CCN(Cc2cncnc2)CC1 | 4 | 0.6
-3.3 | -14 | COC(=O)c1ccc2nc(-c3ccccc3)c(Cc3ccc(OC)cc3C)n2c1 | -2 | 3.1
-1.0 | -2 | CC(=O)N[C@@H]1C=C[C@@H](CC(=O)NCC2CCCCC2)O[C@@H]1CO | 1 | -2.4
-0.4 | -1 | COc1cccc(C(=O)Nc2ccc3c(c2)C(=O)N(C)[C@@H]2CC[C@@H](CC(=O)N[C@H](C)c4ccccc4)O[C@@H]2CO3)c1 | -13 | -1.5
3.9&1.0 | -3&-1 | COc1cccc(-c2ccc(C3[C@@H]4CN(C(=O)C5CCC5)C[C@H]3N4)cc2)c1 (some centres not stated) | 2&5 | 4.3&1.5
-3.8 | 10 | COC(=O)C[C@H]1CC[C@H](NC(=O)c2cccc(F)c2)[C@@H](CO)O1 | 2 | 3.3
-0.9 | -8 | O=C(C[C@H]1C[C@@H]2c3cc(NC(=O)C4CCC4)ccc3O[C@@H]2[C@@H](CO)O1)NCc1ccc(-c2ccccc2)cc1 | -25 | 11
-0.7 | 0 | Cc1noc(C)c1NC(=O)Nc1cccc2c1O[C@@H](CN(C)S(=O)(=O)c1cccs1)[C@H](C)CN([C@H](C)CO)C2=O | -11 | 0.8
-0.9 | 4 | C[C@@H]1CN([C@H](C)CO)C(=O)c2cc(NC(=O)CCN3CCOCC3)ccc2O[C@@H]1CN(C)C(=O)Nc1ccc(F)cc1 | 7 | -0.2
5.8 | 5 | CN1C(=O)c2cc(NC(=O)Cc3cccs3)ccc2OC[C@H]2O[C@@H](CC(=O)N[C@@H]3CCN(Cc4ccccc4)C3)CC[C@@H]21 | -1 | -1.1
1.4 | 0 | C[C@H]1CN([C@@H](C)CO)C(=O)c2ccccc2-c2ccccc2CO[C@@H]1CN(C)S(=O)(=O)c1cn(C)cn1 | 4 | -2.0
0.6&2.1 | -2&7 | C[C@H]1CN([C@@H](C)CO)C(=O)CCCn2cc(nn2)CO[C@@H]1CN(C)C(=O)Nc1ccc(-c2cccs2)cc1 | -4&16 | 1.7&-2.3
-1.2 | 2 | CC(C)CC#Cc1cnc2c(c1)C(=O)N([C@@H](C)CO)C[C@@H](C)[C@@H](CN(C)C(=O)c1ccccc1)O2 | 2 | 0.7
-2.0 | 2 | CCCC(=O)Nc1ccc2c(c1)OC[C@H](C)N(C)C[C@@H](C)[C@@H](OC)CN(C)C2=O | 13 | -2.5
-2.4 | 4 | C[C@@H]1CN([C@H](C)CO)C(=O)c2cc(NS(=O)(=O)c3cn(C)cn3)ccc2O[C@@H](C)CCCCO[C@H]1CN(C)S(=O)(=O)c1ccc(F)cc1 | 4 | 1.4
6.2 | 0 | COc1cccc(S(=O)(=O)N(C)C[C@H]2OCc3ccccc3-c3c(n(C)c4ccccc34)C(=O)N([C@H](C)CO)C[C@@H]2C)c1 | -1 | 0.6
-0.6 | 0 | CC(=O)N1[C@H](CO)[C@H](c2ccccc2)[C@@H]1CN(C(=O)c1ccccc1)C(C)C | 2 | -0.7
1.6 | 2 | C[C@@H]1CN([C@H](C)CO)C(=O)c2cc(C#CCN(C)C)cnc2O[C@@H]1CN(C)Cc1ccc(F)cc1 | 6 | -0.5
-0.7 | -1 | C[C@@H]1CN([C@@H](C)CO)C(=O)c2cccc(NS(=O)(=O)c3ccccc3)c2O[C@@H]1CN(C)Cc1ccc(Oc2ccccc2)cc1 | -3 | 2.9
0.0 | -1 | Cc1ccc(S(=O)(=O)N(C)C[C@@H]2Oc3ccc(NC(=O)Cc4ccccc4)cc3C(=O)N([C@H](C)CO)C[C@H]2C)cc1 | -3 | -0.3
0.2 | 2 | CO[C@@H]1CN(C)C(=O)c2cc(NC(=O)C3CC3)ccc2OC[C@@H](C)N(CC2CC2)C[C@@H]1C | 1 | -2.4
-0.3 | 1 | O=C(Nc1cc(F)ccc1F)N1CCCCN2[C@H](CO)[C@H](c3ccc(C4=CCCCC4)cc3)[C@@H]2C1 | -16 | 4.5
-5.2 | -63 | COc1ccc(-c2csc(C(C)(O)c3cccc(F)c3)n2)cc1 (configuration not stated) | -81 | -20
-5.3 | 5 | C[C@@H]1CN([C@@H](C)CO)C(=O)Cc2cc(NC(=O)Cn3cnnn3)ccc2O[C@@H]1CN(C)Cc1ccc(C(=O)O)cc1 | 16 | -1.7
-0.6 | 1 | CN1C(=O)c2cc(NC(=O)c3cscn3)ccc2OC[C@@H]2O[C@@H](CC(=O)N3CCCCC3)CC[C@@H]21 | 3 | -1.5
0.3 | -48 | O[C@H]1CN(CC2CCCCC2)[C@@H](c2ccccc2)C[C@@H]1n1cc(C2CC2)nn1 | -79 | -16

Going on with the list.
MLL AF4-AF9 inh | Ecoli rRNA inh | Compound | Ecoli rRNA inh OD600 | Ecoli rRNA inh RFP
-3.4 | 5 | O=C(C[C@H]1CC[C@@H](NS(=O)(=O)c2ccc(F)cc2)[C@@H](CO)O1)NC1CCC1 | 8 | -0.7
0.1 | 3 | C[C@H](CO)N1C[C@H](C)[C@@H](CN(C)C(=O)Nc2ccc(F)cc2)Oc2ccc(NS(=O)(=O)c3cccs3)cc2CC1=O | 3 | 1.7
2.1 | 11 | COc1cccc(OC)c1-c1cnc(NC(C)=O)cn1 | 15 | -0.8
-1.5 | -8 | C[C@@H]1CN([C@@H](C)CO)C(=O)c2cc(-c3cccc(F)c3)cnc2O[C@H]1CN(C)C(=O)C1CCC1 | -5 | -0.5
-2.2 | 2 | COc1ccc(CNC(=O)C[C@@H]2CC[C@H](NS(=O)(=O)c3cccc(OC)c3)[C@@H](CO)O2)cc1 | 7 | 0.6
6.8 | -1 | COc1ccc(S(=O)(=O)N(C)C[C@@H]2OCCCC[C@@H](C)Oc3ccc(N(C)C)cc3C(=O)N([C@@H](C)CO)C[C@@H]2C)cc1 | -4 | -1.7

One compound at a time, as listed above. Screens in order: MLL AF4-AF9 inh, Ecoli rRNA inh, Ecoli rRNA inh OD600, Ecoli rRNA inh RFP
COc1cccc(OC)c1-c1cnc(NC(C)=O)cn1 in the list: 2.1, 11, 15, -0.8
C[C@H](CO)N1C[C@H](C)[C@@H](CN(C)C(=O)Nc2ccc(F)cc2)Oc2ccc(NS(=O)(=O)c3cccs3)cc2CC1=O in the list: 0.1, 3, 3, 1.7
COc1ccc(S(=O)(=O)N(C)C[C@@H]2OCCCC[C@@H](C)Oc3ccc(N(C)C)cc3C(=O)N([C@@H](C)CO)C[C@@H]2C)cc1 in the list: 6.8, -1, -4, -1.7
C[C@@H]1CN([C@@H](C)CO)C(=O)c2cc(-c3cccc(F)c3)cnc2O[C@H]1CN(C)C(=O)C1CCC1 in the list: -1.5, -8, -5, -0.5
O=C(C[C@H]1CC[C@@H](NS(=O)(=O)c2ccc(F)cc2)[C@@H](CO)O1)NC1CCC1 in the list: -3.4, 5, 8, -0.7
